D2 ag: activates the human D2 dopamine receptor; 360,000 tested, 0.084% active; activation, % (no concentration beside the values); DiscoveRx PathHunter D2 beta-arrestin, luminescence, 90 min; 100% = 57 uM dopamine signal; P14416; AID 624465; in the data active = activation above about 40%; inconclusive = about 15% to 40%; inactive = below about 15%; also: compound concentration not given in the record; the text of the record calls up to 30% inactive
Target sequence (P14416 whole entry, looked up): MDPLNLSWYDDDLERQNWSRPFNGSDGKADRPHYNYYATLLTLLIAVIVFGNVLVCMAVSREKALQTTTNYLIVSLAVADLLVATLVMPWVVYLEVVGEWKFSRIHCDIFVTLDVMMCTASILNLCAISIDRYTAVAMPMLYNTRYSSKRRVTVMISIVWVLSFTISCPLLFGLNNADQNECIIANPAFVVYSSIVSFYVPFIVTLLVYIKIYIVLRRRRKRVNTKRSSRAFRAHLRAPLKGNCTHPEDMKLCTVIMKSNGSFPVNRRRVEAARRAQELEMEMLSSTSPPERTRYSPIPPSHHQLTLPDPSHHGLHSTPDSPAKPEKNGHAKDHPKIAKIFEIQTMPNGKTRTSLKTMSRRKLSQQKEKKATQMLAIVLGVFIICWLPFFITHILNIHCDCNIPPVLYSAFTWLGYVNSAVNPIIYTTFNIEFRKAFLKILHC
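DiscoveRx PathHunter D2 beta-arrestin cells (2,100/well) attached overnight, then compound-stimulated 90 min at 37 C in HBSS/10 mM HEPES/0.1% Tween-20 buffer; beta-galactosidase complementation read by luminescence after 1 h at ambient temperature. Dopamine 57 uM final (EC100) as control.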
TRPML1 agonist: human mucolipin-1 channel agonism | TRPML1-expressing cells, Ca2+ dye fluorescence, FDSS; host cell line not named in the record; reference of the full effect not given here | 410,000 tested, 0.12% active | AID 624414 | Q9GZU1 | activation, % (no concentration beside the values); in the data active = activation above about 50%; inconclusive = about 30% to 50%; inactive = below about 30%; also: 0% is about no effect; the text of the record puts the active cut at 80%
Target sequence (Q9GZU1 whole entry, looked up): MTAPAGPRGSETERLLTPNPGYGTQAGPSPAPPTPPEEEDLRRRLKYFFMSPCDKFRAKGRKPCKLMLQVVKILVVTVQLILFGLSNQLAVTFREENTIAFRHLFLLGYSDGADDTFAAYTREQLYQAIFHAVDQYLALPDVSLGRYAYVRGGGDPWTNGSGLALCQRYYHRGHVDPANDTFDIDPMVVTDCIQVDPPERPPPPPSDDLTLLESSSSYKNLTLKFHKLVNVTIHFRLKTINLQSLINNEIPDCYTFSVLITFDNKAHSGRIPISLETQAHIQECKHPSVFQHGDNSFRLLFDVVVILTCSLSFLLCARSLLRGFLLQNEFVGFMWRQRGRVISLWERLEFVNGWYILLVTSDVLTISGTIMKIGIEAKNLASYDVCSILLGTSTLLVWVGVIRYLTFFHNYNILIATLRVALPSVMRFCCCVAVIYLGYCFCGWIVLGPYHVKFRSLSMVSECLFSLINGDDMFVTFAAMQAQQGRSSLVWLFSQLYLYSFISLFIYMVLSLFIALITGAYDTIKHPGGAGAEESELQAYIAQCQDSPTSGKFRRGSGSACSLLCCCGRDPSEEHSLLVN
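Kinetic FDSS Ca2+ read in Tet-induced TRPML1-DL cells (ABD Ca8 dye plus quencher, 45-90 min RT loading): baseline, then compound, then 110 s agonist window; EC80 agonist 54-4 at 4uM final added afterwards for a 110 s antagonist window.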
Six1-Eya2 blk: inhibitors of human Six1/Eya2 interaction; 360,000 tested, 0.56% active; activity change, % (test concentration not listed); AlphaScreen GST-Six1/His-Eya2 binding, biochemical; active compounds read low; control for the full effect not named in the record; Q15475+O00167; in the data active = activity change below about -65%; inconclusive = about -30% to -65%; inactive = above about -30%; also: % is scaled to controls: 0 for no effect and ±100 for the full control effect
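Compounds are tested against tagged Six1 and Eya2 proteins bridged by glutathione donor and nickel acceptor beads; after a one-hour incubation at 37 °C without light, AlphaScreen emission is recorded.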
D2 PAM: human D2 receptor positive allosteric modulation. DiscoveRx D2 beta-arrestin cells, luminescence, 90 min; 100% = 57 uM dopamine signal. potentiation, % (test concentration not listed). 360,000 tested, 0.23% active. P14416. AID 624464; active = potentiation of 50% or more; inconclusive = 30% to 50%; inactive = 30% or less;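 also: compound concentration not given in the record; tested on top of an EC20 dose of dopamine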
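PathHunter D2 cells, attached overnight at 37 deg C, received compound in DMSO plus dopamine at EC20 (50 nM final) for 90 min at 37 deg C. Beta-arrestin recruitment was read as luminescence after 1 h with detection reagent at ambient temperature.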
PINK1 modulator: modulators of PINK1 expression | PINK1 immunofluorescence, high-content cytometry, 24 h | Potency, µM (doses to about 76.6 µM), without a hit: top-dose activation (PINK1 increase), usual class: activators | 410,000 tested, 0.2% active | AID 624263; active = well fitted activation curve with a large enough effect; inconclusive = small, poorly fitted or top-dose-only effect; inactive = flat fitted curve, though single readings scatter; cell line not stated here;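 also: potency is read from the fitted curve at half-maximal effect; % of control where 0% means no effect; nearly all actives have a fitted effect of over 65% in size; a mitochondrial uncoupler was the plate control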
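PINK1 protein, normally rapidly degraded, was detected by immunofluorescence after 24 hour compound treatment of a stable cell line. Titration data (5 concentrations) came from laser-scanning cytometry, with CCCP-treated wells as controls.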
CtBP-E1A blk: blocks the CtBP interaction with E1A. AlphaScreen GST-E1A/His-CtBP binding, 1536-well; active compounds read low; control for the full effect not named in the record. activity change, % (test concentration not listed). 340,000 tested, 0.49% active. AID 651724; in the data active means activity change below about -65%; inconclusive means about -30% to -65%; inactive means above about -30%; also: % is scaled to controls: 0 for no effect and ±100 for the full control effect
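AlphaScreen with 125 nM GST-E1A and 125 nM His-CtBP (5X stocks) in Tris pH 8.0, 300 mM NaCl, BSA, Tween 20, TCEP. Compounds preincubated 2 h at 37 deg C, then glutathione donor/nickel acceptor beads added for 1 h at 37 deg C in dark.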
The depositor's hits bear a star; ? = inconclusive; . = no result given; [ ] = dose if it differs, or a comment.

SMILES | D2 ag | TRPML1 agonist | Six1-Eya2 blk | D2 PAM | PINK1 modulator | CtBP-E1A blk
Cc1ccnc(NC(=O)c2oc3ccccc3c2C)c1 | 8.1 | 4.8 | 0 | -17 | 7.4% | 11
COc1ccc(NC(=O)COC(=O)CCCC2=NS(=O)(=O)c3ccccc3N2)cc1Cl | -2.5 | 0.0 | 0 | -26 | -1.6% | -15
CC1(C)CC2CC(C)(CN2C(=O)c2cc(-c3ccccc3O)on2)C1 (stereo unspecified) | 0.1 | 1.8 | -1 | -6 | 11% | 0
COC(=O)c1cccc(Cn2nc(C)c([N+](=O)[O-])c2C)c1 | 2.5 | -0.3 | 3 | 3 | 3.0% | 15
COc1ccc(CN(CC(=O)NCc2ccccc2)C(=O)CCC(=O)Nc2nccs2)cc1 | 0.2 | -0.1 | 0 | -5 | 7.4% | 5
CCCNC(=S)N1CCC(NC(=O)c2cccc(C)c2)CC1 | -4.1 | 0.1 | 10 | -5 | -1.2% | -10
O=[N+]([O-])c1ccc(N(CC2CO2)S(=O)(=O)c2ccccc2)cc1 (stereo unspecified) | 1.0 | 0.0 | 2 | -1 | -1.0% | -1
CC1=CC(c2ccccc2)n2nc(N)nc2N1 (stereo unspecified) | -3.7 | 0.0 | 1 | -5 | 0.0% | .
Cc1ccnc(NC(=O)c2cccc(S(=O)(=O)NCc3ccccc3)c2)c1 | -4.0 | 1.5 | -4 | -11 | 0.7% | -1
CCCCCCCCCCCCCCCC[N+](C)(C)CCl | -5.2 | 0.8 | 16 | -35 | -5.1% | 0
COc1cccc(-c2nnc(-c3ccccc3NC(=O)c3ccc(C(C)(C)C)cc3)o2)c1 | -5.4 | -0.8 | -3 | -8 | 11% | 12
COc1cc(C(=O)NCCc2ccc3c(c2)OCO3)cc(OC)c1OC | -2.5 | 0.5 | -2 | -5 | -1.9% | 3
COC(=O)/C=C/c1oc2ccccc2c1C | -9.0 | 1.0 | 17 | 0 | 1.6% | 3
COc1ccc(CN2CCNC(=O)C2CC(=O)O)cc1OC (stereo unspecified) | -0.8 | -0.6 | -6 | -5 | -0.1% | 10
O=C(NCCO)C(c1ccccc1)c1ccccc1 | 1.2 | 1.2 | -1 | 6 | -6.5%[38.3 µM] | -1
COc1ccc(-n2nc(C(=O)NCC(=O)NCc3ccc(F)cc3)c3ccccc3c2=O)cc1 | 5.7 | 1.3 | 1 | 16 | 0.4% | 0
O=S(=O)(c1ccc(S(=O)(=O)N2CCC(O)CC2)cc1)N1CCCC1 | 1.0 | 0.0 | 6 | -5 | 12% | 3
O=C(O)COc1ccc2c(c1)O/C(=C\c1cccs1)C2=O | -3.4 | 0.5 | -19 | -5 | 1.5% | -5
COc1ccc(NC(=O)C2CCCC2)cc1 | -3.1 | 0.0 | 7 | -3 | 0.3% | 2
O=C1CC(NCC2CCCO2)C(=O)N1c1ccc(F)cc1 (stereo unspecified) | 6.2 | -0.1 | 3 | -7 | -1.1% | .

Arranged by heavy-atom count (rising): 3 of the compounds above
SMILES | D2 ag | TRPML1 agonist | Six1-Eya2 blk | D2 PAM | PINK1 modulator | CtBP-E1A blk
CC1=CC(c2ccccc2)n2nc(N)nc2N1 (stereo unspecified) | -3.7 | 0.0 | 1 | -5 | 0.0% | .
O=C1CC(NCC2CCCO2)C(=O)N1c1ccc(F)cc1 (stereo unspecified) | 6.2 | -0.1 | 3 | -7 | -1.1% | .
O=[N+]([O-])c1ccc(N(CC2CO2)S(=O)(=O)c2ccccc2)cc1 (stereo unspecified) | 1.0 | 0.0 | 2 | -1 | -1.0% | -1

Additional compounds follow:
SMILES | D2 ag | TRPML1 agonist | Six1-Eya2 blk | D2 PAM | PINK1 modulator | CtBP-E1A blk
COC(=O)c1ccc2c(=O)[nH]c(CSc3nnc(C(F)(F)F)n3C)nc2c1 | -2.9 | 0.0 | 10 | -7 | 0.4% | 1
CCc1c(C)nc2ncnn2c1Nc1ccc(C#N)c(Cl)c1 | 2.5 | 1.4 | -3 | -3 | 14%[38.3 µM] | -1
Nc1nnnn1CC(=O)N/N=C/c1ccc(-c2cccc(Cl)c2)o1 | -0.6 | -0.8 | 2 | -7 | 6.2% | -4
COCCn1c(SCC(=O)Nc2ccc(F)cc2)nc2c(c1=O)SCC2 | -0.4 | -0.6 | 1 | -6 | -0.3% | 2
COc1ccccc1NS(=O)(=O)c1ccc(N/N=C/c2ccccc2OCC(=O)O)c([N+](=O)[O-])c1 | -5.3 | 1.8 | -17 | -6 | -2.6% | -24
CCc1ccc(OCC(=O)N(C)C)c(Br)c1 | -1.0 | 1.0 | 4 | -3 | 3.0%[38.3 µM] | 7
O=C(Nc1ccccc1)N1CCN(Cc2ccccc2)CC1 | 0.8 | 0.3 | 8 | -25 | -0.8% | -1
NC(=O)c1cccc(N=Cc2cc(Cl)cc(Cl)c2O)c1 | -6.2 | 0.3 | 0 | -6 | 3.0% | 8
Cc1ccc(N2CC(O)(c3cccs3)[N+]3=C2CCCC3)cc1 (stereo unspecified) | -3.8 | -0.3 | -3 | -22 | 2.9% | 4
Cc1ccccc1-c1n[nH]c(=S)n1C | 3.3 | 1.0 | 4 | -10 | 4.3% | 0
COc1cc(NC(=S)NC(=O)c2ccc(C)cc2C)ccc1NC(=O)c1cccs1 | -1.1 | 1.2 | -7 | -9 | 7.7% | -2
CCn1c(C)nc2cc(C(=O)NNC(=O)CN(C)S(=O)(=O)c3ccc(NC(C)=O)cc3)ccc21 | 3.9 | -0.6 | -1 | -1 | -0.4% | .
CC(=O)c1cccc(S(=O)(=O)Nc2cccnc2)c1 | 2.0 | -0.4 | 6 | -3 | 0.8% | 0
CCc1ccccc1NC(=O)/C(=C/c1ccccc1)c1ccccc1 | -5.4 | 2.8 | 17 | -8 | ? | 12
CC(C)(C)C(=O)NNC(=O)COc1ccc2ccccc2c1Br | -1.5 | -0.6 | 0 | -11 | -0.3% | .
C=CCn1c(SC)nnc1-c1ccc2ncccc2c1 | 1.3 | 0.6 | 7 | 3 | 1.5% | 6
COc1cccc(C(=O)NNC(=O)C2CC(C)=C(C)CC2C(=O)O)c1 (stereo unspecified) | -0.9 | 0.9 | 10 | -3 | -0.8% | 5
O=C(Cc1c(O)c2ccccc2[nH]c1=O)NCc1cccc(F)c1 | -2.3 | 1.5 | 0 | -13 | 12%[38.3 µM] | 10
CC(=O)Nc1cc(C(F)(F)F)ccc1Oc1cccc(Br)c1 | -3.8 | 1.7 | 4 | -13 | 4.4% | 8
O=C(COc1ccc(-n2cnnn2)cc1)Nc1ccccc1Cl | -2.3 | -0.1 | 1 | 0 | 1.9% | 3

Arranged by value in D2 ag (high to low): some entries from above
compound	D2 ag
C=CCn1c(SC)nnc1-c1ccc2ncccc2c1	1.3
Cc1ccc(N2CC(O)(c3cccs3)[N+]3=C2CCCC3)cc1 (stereo unspecified)	-3.8
COc1ccccc1NS(=O)(=O)c1ccc(N/N=C/c2ccccc2OCC(=O)O)c([N+](=O)[O-])c1	-5.3

The listing continues:
SMILES | D2 ag | TRPML1 agonist | Six1-Eya2 blk | D2 PAM | PINK1 modulator | CtBP-E1A blk
CCOc1ccc(NS(=O)(=O)c2ccc(NS(C)(=O)=O)cc2)cc1 | -0.8 | -0.3 | 25 | 10 | -1.1% | 5
COC(=O)C1CCN(S(=O)(=O)c2cn(C)c(=O)n(C)c2=O)CC1 | -2.9 | 0.5 | -3 | -1 | 1.2% | 1
COc1ccccc1NC(=O)c1ccc2[nH]c(C)c(C)c2c1 | -1.7 | 1.1 | -15 | -13 | -0.1% | -18
CC(OC(=O)CN(C)S(=O)(=O)c1ccc(Cl)cc1)C(=O)Nc1ncc(Cl)cc1Cl (stereo unspecified) | 1.2 | 0.8 | 1 | -2 | 5.5%[38.3 µM] | 2
COc1ccc(CC(=O)Nc2ccc(OC)nc2)cc1 | -1.6 | -0.7 | 2 | -8 | 1.3% | 10
Cc1nc(SCC(=O)N2c3ccccc3Sc3ccccc32)n[nH]1 | -0.1 | 2.3 | 4 | -8 | 0.1% | -1
CC(C)N1C(=O)S/C(=C/c2ccccc2OCc2ccc(C(=O)O)cc2)C1=O | -4.5 | 0.4 | -6 | -4 | -2.0% | -17
O=C(OCc1ccc(F)cc1)c1cc2ccccc2cc1O | 6.9 | -0.3 | 12 | -3 | 2.6% | .
COc1ccc(N(CC(=O)N2CCc3ccccc3C2)S(C)(=O)=O)cc1 | -1.1 | 0.0 | 2 | -1 | . | 7
CN1CCc2nc(SCc3ccc(Cl)cc3)c(C#N)c(-c3cccs3)c2C1 | -0.2 | 1.0 | -5 | -22 | 2.2%[38.3 µM] | -10
CC(C)CC(=O)c1c[nH]c(C(=O)NCc2cccnc2)c1 | -5.1 | 1.1 | 3 | -1 | 0.7% | 5
NS(=O)(=O)c1ccc(CNC(=S)Nc2ccc(Cl)c(Cl)c2)cc1 | 1.2 | -0.4 | 0 | 3 | 2.2% | -2
O=[N+]([O-])c1ccc(Oc2ccc(Oc3ccc(C(F)(F)F)cn3)cc2)nc1 | -4.3 | 0.0 | -8 | 0 | 0.5% | .
COc1cc(NC(=O)[C@@H](NC(=O)N2CCn3c2nc2ccccc23)C(C)C)cc(OC)c1 | -0.9 | -0.7 | -1 | -12 | 0.1% | -8
CCN(CCCNC(=O)Cn1cc2c(n1)CCCC2)c1cccc(C)c1 | -6.2 | 0.3 | -17 | -10 | 0.6% | ?
Cc1ccc(-c2ccc(/C=N\n3cnnc3)o2)c(Br)c1 | 9.6 | 0.9 | 2 | -1 | 0.1% | -6
Cc1ccc(OCCOC(=O)c2sc(=S)n(C)c2C)cc1 | -6.2 | 0.6 | -1 | -3 | 3.4% | 0
COc1ccc(N2C(=O)CC(N3CCN(c4cccc(Cl)c4)CC3)C2=O)cc1 (stereo unspecified) | -1.1 | -0.3 | -4 | -16 | 0.3% | -8
CCOc1ccccc1NC(C)C(=O)Nc1cc(C(F)(F)F)ccc1N1CCOCC1 (stereo unspecified) | 0.6 | 1.2 | -5 | -16 | 6.5% | -14
CCOc1ccc(NC(=O)CC2C(=O)N(c3ccc(OCC)cc3)C(=S)N2C2CC2)cc1 (stereo unspecified) | 0.0 | 0.0 | 0 | -7 | ? | 6
N#CCCn1c(=S)[nH]c2ccccc21 | -0.4 | 3.3 | 2 | -10 | 0.6% | -7
COc1ccc(C2=C(Nc3ccccc3)c3ccccc3C2=O)cc1 | -8.1 | 0.3 | -21 | -4 | 5.3% | -26
CC(=O)N1CCc2cc(S(=O)(=O)CCC(=O)Nc3ccccc3F)ccc21 | 5.2 | 0.6 | 6 | -4 | -0.5% | -4
CCc1ccc(-n2c(SCc3c(C)noc3C)nnc2-c2ccncc2)cc1 | -9.9 | 0.6 | -6 | -13 | -1.2% | 2

4 compounds drawn at random from those above, as already listed:
SMILES | D2 ag | TRPML1 agonist | Six1-Eya2 blk | D2 PAM | PINK1 modulator | CtBP-E1A blk
CC(C)N1C(=O)S/C(=C/c2ccccc2OCc2ccc(C(=O)O)cc2)C1=O | -4.5 | 0.4 | -6 | -4 | -2.0% | -17
COc1cc(NC(=O)[C@@H](NC(=O)N2CCn3c2nc2ccccc23)C(C)C)cc(OC)c1 | -0.9 | -0.7 | -1 | -12 | 0.1% | -8
CCCNC(=S)N1CCC(NC(=O)c2cccc(C)c2)CC1 | -4.1 | 0.1 | 10 | -5 | -1.2% | -10
COc1ccc(NC(=O)C2CCCC2)cc1 | -3.1 | 0.0 | 7 | -3 | 0.3% | 2
